# PK Bst: Pyruvate Kinase | Potency, µM | partly purified Bacillus stearothermophilus pyruvate kinase, luminescence ATP production; ribose 5-phosphate activator present at AC10 | AID 361, 2006 | hit rate 1.2% among 51,000; in the data active means potency below about 11 µM; inconclusive means mostly about 12 µM to 25 µM; inactive means weaker than that;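 the screen sought inhibitors and activators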;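 note: potency is the fitted concentration of half-maximal effect; scaled between full activation by ribose 5 phosphate and full inhibition by luteolin; about four in five hits inhibit and the cells do not say which; series up to 57 µM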
# YjeE inh: qHTS Assay for Inhibitors of YjeE; tRNA threonylcarbamoyladenosine biosynthesis protein TsaE (Escherichia coli (strain …; purified YjeE, fluorescence polarisation of a bound ADP probe; Potency, µM; hit rate 0.05% among 71,000; active = well fitted falling curve; inconclusive = weaker or top-dose-only fall, or a rising curve; inactive = flat or poorly fitted curve;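 note: top concentration of the series not given in the record; excess ADP was the control for the full effect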
#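 Fluorescence polarization of a BODIPY Texas Red–ADP probe (2 uM) bound to purified YjeE (10 uM) was read after 15 min room-temperature incubation with compounds. Loss of polarization marks inhibitors; ADP serves as titrated control.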
# An asterisk follows results filed as active; i = inactive; ? = inconclusive; / = not tested or not shown.
PK Bst,YjeE inh,SMILES
>57,i,O=C(C1CCN(C2CC(=O)N(Cc3ccccc3)C2=O)CC1)N1CCCCCC1 (centres undefined)
>57,i,Nc1cccc(NC(=O)c2cccs2)c1
>57,i,COc1ccccc1CNC(=O)CN(C)CC(=O)Nc1cccc(F)c1
>57,i,COC(=O)C(NC(=O)C(C)Oc1ccccc1)C(C)C (centres undefined)
>57,i,COC(=O)Oc1c(Br)c(=O)oc2ccccc12
>57,i,Cc1ccc(O)c(NC(=O)c2ccco2)c1
/,i,CN(C)CCCNc1ncnc2nc[nH]c12
/,i,Cn1cc(-c2nc3cnc(N4CCNCC4)nc3n(C3CC3)c2=O)c2ccccc21
>57,i,CC(=O)NCCOc1cccc2ccccc12
?,i,N#C/C(=C1\CCCN1)c1nc(-c2ccccc2)cs1
>57,i,CCCC(=O)N(CCc1ccccc1)Cc1nc2ccccc2c(=O)[nH]1
>57,i,C=CCNc1nc(N(c2ccccc2)c2ccccc2)nc(-n2ccnc2)n1

# More records
PK Bst,YjeE inh,SMILES
>57,i,Cc1cccn2c(=O)c3cc(C#N)c(=NC(=O)c4ccc5c(c4)OCO5)n(CC(C)C)c3nc12
>57,i,CCOC(=O)c1c(CN2CCN(C)CC2)oc2ccc(OC)cc12
i,i,CCCOc1ccc(-c2nc(N)n[nH]2)cc1
/,i,N#Cc1cccc(NC(=O)N2CCC3(CC2)CCN(C(=O)c2cccc(F)c2)CC3)c1
>57,i,O=c1c2ccccc2oc2nc(-c3ccco3)n(Cc3ccccc3)c(=O)c12
>57,i,COc1ccc(C2C=C(C)Nc3nc(SC)nn32)cc1 (centres undefined)
/,i,COc1cccc(Nc2ncc3nc(C)c(=O)n(Cc4cccs4)c3n2)c1
>57,i,CCOC(=O)COc1nc(OC)nc(N2CCOCC2)n1
>57,i,CCOC(=O)Cc1csc(NC(=O)c2ccc(S(=O)(=O)N3CCCCC3)cc2)n1
>57,i,Cc1ccc(Cn2nc(C)c(NC(=O)c3cc(-c4ccco4)on3)c2C)cc1
/,i,COc1ccccc1CNc1cc(-c2cccc(C#N)c2)ncn1
>57,i,O=C(c1cccc(S(=O)(=O)N2CCOCC2)c1)N1CCCC1

# A different layout for part of the listing above:
CCOC(=O)c1c(CN2CCN(C)CC2)oc2ccc(OC)cc12
  PK Bst: >57 | YjeE inh: i

O=c1c2ccccc2oc2nc(-c3ccco3)n(Cc3ccccc3)c(=O)c12
  PK Bst: >57 | YjeE inh: i

COc1ccc(C2C=C(C)Nc3nc(SC)nn32)cc1 (centres undefined)
  PK Bst: >57 | YjeE inh: i

N#Cc1cccc(NC(=O)N2CCC3(CC2)CCN(C(=O)c2cccc(F)c2)CC3)c1
  PK Bst: / | YjeE inh: i

# Next records
PK Bst,YjeE inh,SMILES
>57,i,O=C(CC1CCCC1)Nc1nnc(C2CC2)s1
>57,i,O=C(CSc1nnc(-c2ccncc2)n1CC1CCCO1)NCc1ccccc1 (centres undefined)
/,i,O=C(NCC1COc2ccccc2O1)C1CCC(CNc2c(N3CCCCC3)c(=O)c2=O)CC1 (centres undefined)
>57,i,CCOC(=O)C(CC)Sc1nnc2n1C(C)(C)Cc1ccccc1-2 (centres undefined)
>57,i,CC(C)C(OC(=O)c1ccco1)C(=O)NCc1cccs1 (centres undefined)
>57,i,CCOCCCNC(=O)C(c1ccc(C)cc1)N(Cc1ccc2c(c1)OCO2)C(=O)c1cnccn1 (centres undefined)
/,i,Cc1ccc2nc(NC(=O)Cn3cc4c(n3)CCCCC4)sc2c1
>57,i,Cn1cccc1C(=O)NC(=O)CSc1cccc[n+]1[O-]
>57,i,CC1CCCN(C(=O)c2ccc3nc[nH]c3c2)C1 (centres undefined)
>57,i,O=C1CC(c2ccccc2)CC2=C1CN(C1CCCCC1)CN2 (centres undefined)
/,i,COc1ccccc1CNc1nc(-c2cccc(C#N)c2)nc2ccccc12
>57,i,Cn1c(N2CCCC2)nc2c1c(=O)n(Cc1ccc(Cl)cc1)c(=O)n2C

# (list continues)
PK Bst,YjeE inh,SMILES
>57,i,O=C(Cn1c(C(=O)N2CCN(C3CCCC3)CC2)cc2sccc21)c1ccccc1
>57,i,Cc1nnc(SCC(=O)Nc2nc(-c3ccccc3)cs2)n1N
>25.6,/,CCN(CC)c1ccc2cc(-c3nnc(-c4ccncc4)o3)c(=O)oc2c1
>25.6,/,CC(C)Cc1[nH]c(=O)c(C#N)c2c1CCCC2
>57,i,Cc1nc2ccccc2c(=O)n1/N=C/c1ccc(O)cc1
>57,i,O=C(O)c1ccc(-c2ccccc2)[nH]1
/,i,CC(=O)c1c(NC(=O)C(C)C)nc(C)nc1-c1ccccc1
>57,i,CSc1ccc(NC(=O)NCCCN2CCN(c3ccccc3F)CC2)cc1
>57,i,C(=C\c1ccccc1)/CSc1nnc(-c2ccccn2)n1Cc1ccco1
>57,i,Cn1c(SCC(=O)Nc2cccc(F)c2)nnc1-c1cc2ccccc2o1
/,i,COc1ccccc1-c1cc(NCc2cccc(C)c2)ncn1
>57,i,CC1CCC/C(=C\Nc2ccccc2C(=O)O)C1=O (centres undefined)

# The listing continues:
PK Bst,YjeE inh,SMILES
>57,i,CC(C)(C)NC(=O)C(c1ccc(OCC(N)=O)cc1)N(C(=O)c1cccnc1)C1CC1 (centres undefined)
>57,i,COc1ccccc1OCc1ccc(C(=O)OCC2CCCO2)o1 (centres undefined)
/,i,Cn1c(=S)c2[nH]c(SCCCc3ccccc3)nc2n(C)c1=O
>11.4,/,COc1ccc(-c2nnc3sc(COc4ccccc4)nn23)cc1
>57,i,CCOC(=O)c1ccc2nc(C(F)(F)F)[nH]c(=O)c2c1
/,i,CN=Cc1sc2ccccc2c1O
>57,i,CNC(=O)c1nnn(-c2ccccc2)c1C(=O)NC
>57,i,O=C(Cc1ccccc1)Nc1ccc(CN2CCOCC2)cc1
>57,i,S=c1[nH]nc(-c2cccnc2)n1Cc1ccccc1
>57,i,Cc1cc(C)cc(OCC(=O)NC2=NCCS2)c1
/,i,COc1ccc(-c2nc3cnc(N(C)C)nc3n(C[C@H]3CCCO3)c2=O)cc1
>57,i,CCOC(=O)C1CCCN(C(=O)C2CCN(Cc3nc(-c4ccc(Cl)cc4)oc3C)CC2)C1 (centres undefined)

# Additional entries.
PK Bst,YjeE inh,SMILES
/,i,O=C(Nc1ccncc1)c1ccccc1F
>57,i,C=CCNC(=O)C1CC(=O)N(c2ccc(OCC(=O)Nc3ccc(C)cc3)cc2)C1 (centres undefined)
>25.6,/,Cn1c(=O)c2c(nc(OCc3cccnc3)n2Cc2ccccc2)n(C)c1=O
>57,i,Oc1ccccc1CNCCCNCc1ccccc1O
>57,i,Cc1cccc(Nc2nc(N)nc(CN3CCN(c4ccccc4)CC3)n2)c1
>57,i,Cc1cc(NC(=O)CCCC(=O)OCC(F)(F)C(F)F)cc(C)c1C(=O)O
/,i,COc1ccc(OC)c(NC(=O)N[C@@H](Cc2ccccc2)C(=O)O)c1
/,i,Cn1nccc1C(=O)Nc1ccc(OC(=O)c2ccnn2C)cc1
/,i,O=C1CSC(=S)N1/N=C\c1ccc(Cl)c([N+](=O)[O-])c1
>57,i,Cc1cccc(N2CCN(C(=O)CCn3c(=S)[nH]c4cc5c(cc4c3=O)OCO5)CC2C)c1 (centres undefined)
i,i,COC(=O)c1cccc(NC(=O)C2C3CCC(C3)C2C(=O)O)c1 (centres undefined)
>57,i,Cc1cnc(C(=O)Nc2ccc(F)c(F)c2)cn1

# Next results follow.
PK Bst,YjeE inh,SMILES
/,i,C=CCNc1ncnc2c1cnn2-c1ccc(Cl)cc1
>57,i,Cc1nn(CC(C)C)c(=S)[nH]c1=O
/,i,COc1ccc(CNC(=O)C2CCCN2S(=O)(=O)c2ccccc2)cc1 (centres undefined)
/,i,c1cncc(-c2cncnc2-n2ccnc2)c1
>57,i,CCOC(=O)c1c(C(=O)OCC)c(C)n(N2C(=O)CSC2=S)c1C
>57,i,COCCn1c(=O)[nH]c2cc(C(=O)NCCN3CCN(c4cccc(Cl)c4)CC3)ccc2c1=O
/,i,COc1ccc(C(=O)N2CCC[C@@]3(CCN(c4ccccn4)C3)C2)cc1
/,i,Cn1c(=O)c2cc(S(=O)(=O)NC(Cc3ccccc3)C(=O)NCc3ccco3)ccc2n(C)c1=O (centres undefined)
/,i,CCNc1ncc2nc(-c3ccc(OC)cc3)c(=O)n(Cc3ccc(F)cc3)c2n1
>57,i,CCCc1[nH]nc2c1C(c1ccc(OC)c(CSC3=NCCS3)c1)C(C#N)=C(N)O2 (centres undefined)
>57,i,O=C(C1=C(O)C(=O)N(Cc2ccccc2)C1c1ccncc1)c1ccco1 (centres undefined)
>57,i,O=C(NC1CCCC1)C1c2ccccc2C(=O)N1C1CCCCC1 (centres undefined)

# Pulled one by one from the list above, 5 records:
PK Bst,YjeE inh,SMILES
>57,i,Cc1cc(C)cc(OCC(=O)NC2=NCCS2)c1
/,i,Cn1c(=S)c2[nH]c(SCCCc3ccccc3)nc2n(C)c1=O
>57,i,Cc1cnc(C(=O)Nc2ccc(F)c(F)c2)cn1
>57,i,O=C(CC1CCCC1)Nc1nnc(C2CC2)s1
>25.6,/,CCN(CC)c1ccc2cc(-c3nnc(-c4ccncc4)o3)c(=O)oc2c1

# Next section.
PK Bst,YjeE inh,SMILES
>57,i,CC(=O)N1CCN(S(=O)(=O)c2ccc(C)cc2)C1C(C)C (centres undefined)
/,i,CC(C)CCN(C)C1CCN(C(=O)Nc2c(F)cccc2F)CC1
>57,i,CCOc1ccc(OCC)c(NC(=O)CSc2nc3c(c(=O)n(C)c(=O)n3C)n2C)c1
>57,i,O=C(C1CCN(c2ccc(N3CCOCC3)nn2)CC1)N1CCc2ccccc2C1
i,i,O=C1c2ccccc2C(=O)N1c1nc(-c2cccs2)cs1
>57,i,O=C(CCSc1ccccc1)Nc1ccc(S(=O)(=O)N2CCOCC2)cc1
/,i,COCCn1c(=O)c(-c2ccc(Cl)cc2)nc2cnc(Oc3ccccc3)nc21
>11.4,/,COC(=O)c1ccc(C2/C(=C(/O)c3ccc(OC)cc3)C(=O)C(=O)N2c2cc(C)on2)cc1 (centres undefined)
>57,i,O=C(CSc1nnc(CNC(=O)c2ccco2)o1)c1ccccc1
>57,i,COc1cc(NS(=O)(=O)c2ccc(NC(=O)c3ccco3)cc2)nc(OC)n1
>57,i,COC(=O)c1ccc(Cl)c(NC(C)=O)c1
>57,i,CCSc1nnc(NC(=O)CSc2nc3c(c(=O)n2CC)SC(C)C3)s1 (centres undefined)

# (more compounds)
PK Bst,YjeE inh,SMILES
>25.6,/,Cc1c(OCc2ccccc2)c(=O)ccn1Cc1ccccc1
>57,i,Cc1ccc(S(=O)(=O)NC(CC(=O)O)c2ccccc2)cc1 (centres undefined)
>57,i,O=C(CN(Cc1cccs1)C(=O)CNC(=O)c1ccco1)NC1CCCCC1
/,i,COC(=O)CC[C@@H](C)[C@H]1CC[C@H]2[C@H]3CC[C@H]4C[C@@H]5CC[C@@]4(C)C3(O5)[C@@H](Br)[C@@H](Br)[C@@]12C
>57,i,Cn1c(CSc2nc3ccccc3s2)nc2ccccc21
>57,i,Nc1nc(N2C(=O)C3CC=CCC3C2=O)nn1-c1ccccc1 (centres undefined)
/,i,C[C@@H](N)C(=O)O
>57,i,Cc1ccc(Cn2nnc3c(=O)[nH]c(C4CCCN(C(=O)Nc5ccc(F)cc5)C4)nc32)cc1 (centres undefined)
/,i,Cc1ccc(N2CCN(CCC(=O)O)CC2)cc1
>57,i,CCn1c(NCc2ccccn2)nc2c1c(=O)n(C)c(=O)n2C
/,i,O=C(NC1CCCCC1)N(Cc1ccccc1)Cc1ccco1
>57,i,CCCCN(CCCC)S(=O)(=O)c1ccc2oc(C(=O)N3CCOCC3)c(C)c2c1

# Next part
PK Bst,YjeE inh,SMILES
>57,i,O=C(NCC(c1cccs1)N1CCOCC1)c1cc2ccccc2o1 (centres undefined)
>57,i,Cc1nn(-c2ccccc2)c(C)c1C(=O)OCC(=O)N1CCN(S(=O)(=O)c2ccccc2)CC1
/,i,CCCC(=O)Nc1nnc(Cc2ccccc2)s1
>57,i,COc1ccc(NC(=O)CSc2nnc(Cc3cccn3C)n2CCc2ccccc2)c(OC)c1
>57,i,Cc1ccc(-n2nc(-c3ccco3)cc2C(=O)NCc2cccnc2)cc1
>57,i,CCC(C)(C)n1nnnc1C(c1ccc(OC)c(OC)c1)N1CCN(c2cccc(OC)c2)CC1 (centres undefined)
/,i,Cc1ccc(Cn2nnc3c(=O)n(Cc4ccccc4C)cnc32)cc1
>57,i,CC1=NOC2(C1)N(C)c1ccccc1C2(C)C (centres undefined)
>57,i,O=C(NCc1ccccn1)c1ccc(Cn2cc(Br)cn2)o1
>57,i,Cc1ccccc1-n1nc2c(c1NC(=O)c1c(-c3ccccc3Cl)noc1C)CSC2
>57,i,CCOC(=O)c1[nH]c(CSc2nnc(-c3ccncc3)n2CCOC)c(C(=O)OCC)c1C
/,i,N#Cc1cnc2sc3ccccc3n2c1=N

# Carrying on.
PK Bst,YjeE inh,SMILES
/,i,CN1C(=O)C2C=CC1C1C(=O)N(c3ccccc3)C(=O)C21 (centres undefined)
>57,i,Cn1nnnc1SCC(=O)Nc1ccccc1N1CCCCC1
/,i,Cc1c(S(=O)(=O)Nc2cccc(Cl)c2)c(=O)n(C)c(=O)n1C
>57,i,Cc1cccc(CS(=O)(=O)Cc2ccc(C(=O)NCC3CCCO3)o2)c1 (centres undefined)
2.8*,i,CSc1nnc2n(-c3ccccc3)c(=O)c3c4c(sc3n12)CCC4
>57,i,COCCSc1nnc(NC(=O)C2CCCCC2)s1
>57,i,CN(Cc1cccs1)c1ncnc2sccc12
/,i,Nc1ccc(Cc2ccc(N)c(C(=O)O)c2)cc1C(=O)O
>57,i,O=S(=O)(c1ccc(-c2nnc(SCc3nnc(-c4ccccc4)o3)o2)cc1)N1CCCC1

# Compound activity: PubChem BioAssay, National Center for Advancing Translational Sciences (NCATS)

# Only part of the results is shown; rates above refer to the full screens.
